Screening data: PubChem, National Center for Advancing Translational Sciences (NCATS)
EPAC2 ant val: human EPAC2 antagonism, validation | Q8WZA2 | EPAC2 Rap1B BODIPY-GDP exchange, fluorescence | Potency, µM (titrated, usually from 112 µM), for the others: at the top dose activity, negative = inhibition, usual class: inhibitors | 1.7% of 16,000 active | AID 1645886; active = well fitted inhibition curve with a large enough effect; inconclusive = small, poorly fitted or top-dose-only effect; inactive = no such curve, though single readings can be large or run the other way;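 also: 100% = activation by cAMP agonist control; nearly all actives have a fitted effect of over 40% in size; the record reuses the description of the EPAC1 agonist screen; inactives centre near -10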
Target sequence (Q8WZA2 whole entry, looked up): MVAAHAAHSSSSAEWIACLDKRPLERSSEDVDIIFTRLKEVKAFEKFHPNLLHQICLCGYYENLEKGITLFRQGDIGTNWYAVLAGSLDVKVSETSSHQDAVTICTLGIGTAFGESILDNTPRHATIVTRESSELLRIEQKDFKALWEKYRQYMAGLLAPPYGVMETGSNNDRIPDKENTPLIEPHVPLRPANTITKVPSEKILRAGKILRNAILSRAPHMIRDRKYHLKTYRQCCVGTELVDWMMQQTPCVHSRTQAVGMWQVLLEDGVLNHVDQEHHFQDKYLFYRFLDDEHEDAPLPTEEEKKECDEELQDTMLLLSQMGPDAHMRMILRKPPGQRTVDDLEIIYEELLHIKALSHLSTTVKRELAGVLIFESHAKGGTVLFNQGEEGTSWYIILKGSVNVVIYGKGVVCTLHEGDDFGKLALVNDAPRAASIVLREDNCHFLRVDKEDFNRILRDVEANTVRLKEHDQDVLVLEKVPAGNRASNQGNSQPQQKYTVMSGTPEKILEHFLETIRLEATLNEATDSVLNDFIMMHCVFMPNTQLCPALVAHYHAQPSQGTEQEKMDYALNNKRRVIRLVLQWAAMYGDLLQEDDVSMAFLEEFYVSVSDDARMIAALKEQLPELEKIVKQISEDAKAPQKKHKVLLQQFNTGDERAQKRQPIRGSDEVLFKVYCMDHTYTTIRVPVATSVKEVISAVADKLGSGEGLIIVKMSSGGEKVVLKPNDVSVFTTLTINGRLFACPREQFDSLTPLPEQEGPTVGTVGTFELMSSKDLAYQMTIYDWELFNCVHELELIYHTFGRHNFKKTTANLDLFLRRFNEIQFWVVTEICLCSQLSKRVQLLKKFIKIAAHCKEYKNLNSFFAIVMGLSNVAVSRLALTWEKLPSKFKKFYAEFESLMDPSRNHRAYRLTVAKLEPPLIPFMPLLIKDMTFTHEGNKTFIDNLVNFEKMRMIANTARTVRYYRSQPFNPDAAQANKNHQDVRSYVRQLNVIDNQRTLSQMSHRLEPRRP
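Normalized against a 6.5 mM cAMP agonist control, compounds were tested on 100 nM EPAC2 exchanging Rap1B-bound BODIPY-GDP (250 nM) for 50 uM GDP. Fluorescence drop (ex 480, em 540 nm) was tracked at room temperature over 30 min at 5-min intervals.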
* = called active by the depositor; ? = inconclusive; & = joins results of further samples; [ ] = dose if it differs, or a comment. Potency is read from the fitted curve at half-maximal effect. A portion of the library; count on the stated rates, not on these rows.

Compound,EPAC2 ant val
NC(=O)C(c1ccccc1)(c1ccccc1)[C@@H]1CCN(CCc2ccc3c(c2)CCO3)C1,24%
c1ccc(-c2cccc(N3CCC4(CCNCC4)CC3)c2)cc1,-21%
O=C(CCBr)N1CCN(C(=O)CCBr)CC1,-3%
Cc1cccc(CNC(=O)c2cnn(-c3nccc(-c4ccccc4F)n3)c2C)n1,-1%
N#Cc1ccccc1-c1cncnc1NCc1cccnc1,-23%
O=c1[nH]cnc2n[nH]nc12,?
Cc1cccc(C(=O)O)c1O,?
C[N+](C)(C)CCCCCCCCCC[N+](C)(C)C,-7%&-22%
CCC(=O)NC1CCc2cccc(OC)c2C1 (stereo not given),-2%
CCCCCN=C(N)N/N=C/c1c[nH]c2ccc(OC)cc12,-11%&-15%
CCOC(=O)/C=C/c1ccc2c(c1)S(=O)(=O)N(c1cccc(OC)c1)[C@H]2CC(=O)OCC,-11%
Cc1ccccc1C(=O)NC(C)c1nnc2n1CCN(Cc1ccnc3ccccc13)CC2 (stereo not given),-19%
COc1ccc(CNc2ccnc(-c3ccc(N(C)C)cc3)n2)c(OC)c1,-33%
CN1CCN(c2cc(-c3ccccc3Cl)ncn2)CC1,-10%
CN(C)c1ncc2ncc(=O)n(C[C@H]3CCCO3)c2n1,-34%
COc1cc2c(cc1OC)-c1cc3nc4ccccc4nc3n1C(C)(C)C2,-3%
COC(=O)c1ccccc1-c1cc(C)cc2c1OC(CNC(=O)c1cc(C)n(C)n1)C2 (stereo not given),?
COC(=O)N1CCC2(CCCN(C(c3ccccc3)c3ccccc3)C2)CC1,?
O=C(c1cccc(F)c1)N1CCC2(CCCN(Cc3cc(C(F)(F)F)cc(C(F)(F)F)c3)C2)CC1,?
CC(C)OC(=O)c1cc2c(OCC(O)CNC(C)(C)C)cccc2[nH]1 (stereo not given),-16%
O=C(O)c1c2ccccc2cc2ccccc12,-9%&-21%
COCCn1c(=O)c(-c2cccs2)nc2cncnc21,8%
FC(F)(F)c1ccccc1-c1cncnc1NCCN1CCOCC1,-15%
CN(Cc1ccccc1)c1ccc(C=O)cc1,?
COc1ccc(O)cc1,21%
Cc1ccc(C(C)C)c(O)c1,-10%
Cc1cn(C2CCC(CO)O2)c(=O)[nH]c1=O (stereo not given),-6%
O=S1(=O)[C@H]2C[C@@H]3C=C[C@@]2(CN1Cc1cccc(Cl)c1)O3,-21%
C=C[C@]1(C)C[C@@H](OC(=O)CSCCN(CC)CC)[C@]2(C)[C@H](C)CC[C@]3(CCC(=O)[C@H]32)[C@@H](C)[C@@H]1O,1%
COC(=O)N1CCC2(CC1)CN(c1cccc(-c3ccccc3)c1)C2,?
CC(C)C[C@@H](CC#N)N1CCN(CCc2ccccc2)CCC1=O,10%
OCCc1ccccc1,2%
C[C@@H]1OC(OC2C(OC3CC[C@@]4(C)C5CC=C6C7CC(C)(C)CC[C@@]7(C(=O)O)CCC6(C)C5(C)CCC4[C@]3(C)CO)OCC(O)C2O)C(O)C(O)C1O (stereo not given in full),-18%
COc1cc2c(cc1OC)C(/C=C/c1ccc(OC)c(OC)c1OC)=NCC2,-16%
CC(C)C[C@@H](CO)N1CCN(Cc2ccc(O)cc2)CCC1=O,?
OCc1ccccc1O[C@H]1OC(CO)C(O)C(O)C1O (stereo not given in full),-5%
COc1cc2c(cc1OC)CN(C(=O)[C@@H]1C[C@H](NCc3cn(C)c4ccccc34)CN1C1Cc3ccccc3C1)CC2,-5%
O=C1CCC[C@@H]2C[C@@]3(C[C@@H]4CCN1[C@H]24)Nc1ccccc1NC3=NCc1ccccc1,8%
CS(=O)(=O)CCNCc1ccc(-c2ccc3ncnc(Nc4ccc(OCc5cccc(F)c5)c(Cl)c4)c3c2)o1,38%[activator]
c1cncc(-c2nc(NCc3cccs3)c3ccccc3n2)c1,-18%
CC(C)=CCC1=C(O)[C@](O)(CC=C(C)C)C(=O)C(C(=O)CC(C)C)=C1O,19%
CN(C)C(=O)c1ccc(-c2cncnc2NCc2ccccc2)cc1,-10%
COC(=O)c1c(OCCN2CCCCC2)cc(=O)n2c1CCN(Cc1cccc3nccnc13)CC2,-28%
COC(=O)N1CCC2(CCN(Cc3ccccc3)CC2)CC1,-11%
O=C(Nc1ccccc1)N1CCCC2(CCN(C(=O)c3cc(C(F)(F)F)cc(C(F)(F)F)c3)CC2)C1,?
Cc1ccccc1-c1nc(N2CCOCC2)c2ccccc2n1,?
Cc1ncc(CSSCc2cnc(C)c(O)c2CO)c(CO)c1O,11%
O=c1c(-c2ccccc2)nc2cnc(N3CCOCC3)nc2n1Cc1cccs1,9%
COCC(=O)N1CCC2(CCCN(Cc3ccc(C#N)cc3)C2)CC1,-17%
O=C(C[N+]1(CC(O)c2ccccc2)CCCCC1)c1ccccc1 (stereo not given),-1%

Taken from the results shown for reference:
Compound,EPAC2 ant val
Cc1cccc(CNC(=O)c2cnn(-c3nccc(-c4ccccc4F)n3)c2C)n1,-1%
N#Cc1ccccc1-c1cncnc1NCc1cccnc1,-23%
O=c1[nH]cnc2n[nH]nc12,?

Remaining list, next part:
Compound,EPAC2 ant val
COc1cccc2c1C(=O)CC(c1ccccc1)O2 (stereo not given),?
CNCC(=O)N[C@@H](CCCN=C(N)N)C(=O)N[C@H](C(=O)N[C@@H](Cc1ccc(O)cc1)C(=O)N[C@H](C(=O)N[C@@H](Cc1cnc[nH]1)C(=O)N1CCC[C@H]1C(=O)N[C@@H](C)C(=O)O)C(C)C)C(C)C,-9%
NC(CCC(=O)NC(CCSC(CC(=O)O)C(=O)O)C(=O)NCC(=O)O)C(=O)O (stereo not given),1%
CCN1CCCC1CNC(=O)c1cnn(-c2nccc(-c3ccccc3F)n2)c1C (stereo not given),1%
N#C/C(=C\c1ccc(O)c(O)c1)C(N)=O,0%&-28%
CC1(C)[C@@H](OC(=O)CCC(=O)O)CC[C@]2(C)[C@H]3C(=O)C=C4[C@@H]5C[C@@](C)(C(=O)O)CC[C@]5(C)CC[C@@]4(C)[C@]3(C)CC[C@@H]12,4µM*
COC(=O)N1CCC2(CCCN(Cc3nccs3)C2)CC1,?
CNc1ccnc(-c2ccccc2CN(C)C)n1,-15%
COc1ccc2[nH]cc(CCNc3ncncc3-c3c(C)noc3C)c2c1,-31%
COc1cc(-c2nc(C)cnc2C)cc2c1OCCN(C(=O)Cc1cc(OC)c(OC)c(OC)c1)C2,-14%
CC(C)Cc1nc2cc(NS(=O)(=O)N(C)C)cc(C(=O)N3CC4(C)CC3CC(C)(C)C4)c2n1C (stereo not given),-12%
CCOC(=O)C1=C[C@]2(CC)CCCN3CCc4c(n1c1ccccc41)[C@@H]32,-18%&0%&-14%
COc1cccc(Nc2ncc3ncc(=O)n(C)c3n2)c1,1%
COc1cc(/C=C\c2ccc(OC)cc2OC)cc(OC)c1,?
C=CCN([C@H](C(=O)OC)C(C)C)S(=O)(=O)CCNCc1ccccc1,-23%
CC(=O)Oc1c(C)c(C)c2c(c1C)CCC(C)(CCCC(C)CCCC(C)CCCC(C)C)O2 (stereo not given),-18%&-9%
CN1CCC(=C2c3ccccc3Sc3ccccc32)CC1,?
COc1ccc(-c2nc3ccc(C4=NNC(=O)CC4C)cc3[nH]2)cc1 (stereo not given),-2%
O=C(c1ccco1)N1CCC[C@@]2(CCN(c3ncccn3)C2)C1,-8%
COc1ccc(-c2cc(=O)c3ccccc3o2)cc1OC,-31%
N#Cc1ccccc1-c1ccc2ncnc(NCCN3CCOCC3)c2c1,-20%
CCCCCCCNS(=O)(=O)c1cccc2c(Cl)cccc12,?
FC(F)(F)C(F)(F)C(F)(F)C(F)(F)C(F)(F)C(F)(F)F,1%
CC(=O)OCC1OC(Oc2cc(OC(C)=O)c3c(=O)cc(-c4ccc(OC(C)=O)c(OC(C)=O)c4)oc3c2)C(OC(C)=O)C(OC(C)=O)C1OC(C)=O (stereo not given),-11%
COc1cccc(-c2ccc3ncnc(N4CCN(C)CC4)c3c2)c1,?
C/C=C/c1ccc(O)c(OC)c1,-5%
N#Cc1cccc(NC(=O)N2CCCC3(CCN(S(=O)(=O)c4ccccc4)CC3)C2)c1,-14%
CC(=O)N1CCC2(CCCN(Cc3ccc(C#N)cc3)C2)CC1,-15%
Cn1c(-c2nc(-c3ccccc3)cs2)nc2ccccc21,26%
N[C@@H](CSSC[C@H](N)C(=O)O)C(=O)O,1%
CN(C)C(=O)c1ccc(-c2ccc3ncnc(N(C)Cc4ccco4)c3c2)cc1,-17%
O=C(NCCCN1CCCCCC1)[C@@H](c1ccccc1)C1CCCCC1,-8%
COc1cccc(CNC(=O)c2c(OC)cc(=O)n3c2CCN(C(=O)c2ccoc2C)CC3)c1,-14%
CN(C)C(=O)c1ccc(/C=C/c2ccnc3ccccc23)cc1,20%
Cn1cc(-c2nc3cnc(Oc4cccc(Cl)c4)nc3n(CCC#N)c2=O)c2ccccc21,-12%
CO[C@]12CC(COC(=O)c3cncc(Br)c3)CN(C)[C@@H]1Cc1cn(C)c3cccc2c13 (stereo not given in full),-13%
CN(C)CCCO[C@@H]1[C@H]2OC(C)(C)O[C@H]2O[C@@H]1[C@H](O)CO,-2%
COc1ccc(C(=O)NCC2Cc3cc(C)cc(-c4nc5ccccc5s4)c3O2)c(OC)c1OC (stereo not given),?
CCCCCCCCCC[n+]1ccc(/C=C/c2c(C)[nH]c3ccccc23)c2ccccc21,?
Cc1noc(C)c1-c1cc(N2CCN(C)CC2)ncn1,-3%
COC1(C)CCC2OC2(C)CCC2C1CC2(C)C (stereo not given),-2%
COc1cccc(N2[C@@H](CC(C)=O)c3ccccc3S2(=O)=O)c1,?
O=C1C=CC2=C3c4cc(O)c(O)cc4C[C@]3(O)COC2=C1,-3%
CCCc1cc(OC)c2c(c1)OCO2,-15%
COC(=O)C[C@H]1c2ccccc2S(=O)(=O)N1c1cccc(OC)c1,?
Cc1noc(C)c1C(=O)N1CCC[C@@]2(CCN(C(=O)NC(C)C)C2)C1,-16%
CO[C@H]1C=CO[C@@]2(C)Oc3c(C)c(O)c4c(O)c(c(C=NN5CCN(C)CC5)c(O)c4c3C2=O)NC(=O)C(C)=CC=C[C@H](C)[C@H](O)[C@@H](C)[C@@H](O)[C@@H](C)[C@H](OC(C)=O)[C@H]1C,1%[29.6 µM]
CCCCOC(=O)c1cc2c(cn1)[nH]c1ccccc12,?
CC[C@H](C)C(=O)O[C@H]1CCC=C2C=C[C@H](C)[C@H](CC[C@@H]3C[C@H](O)CC(=O)O3)[C@H]21,?
Cc1ccccc1C(=O)O[C@H]1[C@H](Cc2ccccc2)NS(=O)(=O)[C@H]2CC3C=C[C@]12O3,-16%

Compounds from the list above that have a thiophene ring, fused or not:
Compound,EPAC2 ant val
COCCn1c(=O)c(-c2cccs2)nc2cncnc21,8%
c1cncc(-c2nc(NCc3cccs3)c3ccccc3n2)c1,-18%
O=c1c(-c2ccccc2)nc2cnc(N3CCOCC3)nc2n1Cc1cccs1,9%

Further entries follow:
Compound,EPAC2 ant val
OC(c1ccc2c(c1)CN(Cc1cccn1-c1ncccn1)CCO2)C1CCCCC1 (stereo not given),-24%
COc1ccc(Oc2ncc3nc(-c4ccc(Cl)cc4)c(=O)n(C[C@H]4CCCO4)c3n2)cc1,-24%
COc1cccc(-c2ccc3ncnc(NCc4ccccc4OC)c3c2)c1,-15%
CC(C)(C)[C@H]1CCC(=O)N([C@H](CSc2ccccc2)Cc2ccccc2)CC1,?
CS(=O)(=O)N1CCC2(CC1)CN(c1ccc(-c3ccccc3)cc1)C2,-2%
C=C1C[C@]23C[C@@]1(O)CC[C@H]2[C@@]12C=C[C@H](O)C(C)(C(=O)O1)[C@H]2[C@@H]3CC(=O)O,14%
CC(=O)NCCNc1cc(-c2ccccc2C)ncn1,-8%
CCN(CC)CCCC(C)Nc1cc(/C=C/c2ccccc2Cl)nc2cc(Cl)ccc12 (stereo not given),-4%
C=C1C(=O)O[C@@H]2[C@H]3O[C@]3(C)CC/C=C(\C)CC[C@@H]12,?
Nc1ccc(S(=O)(=O)c2ccc(N)cc2)cc1,-11%&-4%
CC(O)(COc1ccccc1)c1ccc2c(c1)CN(Cc1ccccn1)CCO2 (stereo not given),-15%
CN(C)Cc1ccccc1-c1cc(Nc2ccccc2)ncn1,-4%
Cn1cnnc1Sc1ccc(CN2CCOc3ccc(C4=Cc5ccccc5C4)cc3C2)o1,?
COc1ccc(Oc2ncc3nc(-c4cccc(C#N)c4)c(=O)n(CCC#N)c3n2)cc1,5%
Clc1cccc(C(c2ccc3nc[nH]c3c2)n2ccnc2)c1 (stereo not given),-14%
O=C(NCC1(N2CCOCC2)CCCC1)c1cnn(-c2nccc(-c3cccs3)n2)c1C1CC1,6%
COc1cc(O)ccc1C(C)=O,-14%
FC(F)(F)c1ccccc1-c1nccc(-n2ccnc2)n1,-25%
c1ccc(C(NCCNC(c2ccccc2)c2ccccc2)c2ccccc2)cc1,-18%
CSc1nnc(CCNC(=O)/C=C/c2cccc(F)c2)n1-c1ccc(F)cc1,-29%
CC(=O)Nc1ccc(SCCN2CC[C@@H](O)CCC2=O)cc1,-4%
